Menin-MLL FL inh = qHTS Assay for Inhibitors Targeting the Menin-MLL Interaction in MLL Related Leukemias: Competition With Fluorescein Labeled MLL-derived Peptide; Fluorescence polarization, fluorescein-MLL peptide displacement from menin; FP activity change, % at 61.4 µM; 290,000 tested, under 10 active; inconclusive = falling polarisation curve, or a change in total fluorescence; inactive = total fluorescence flat and polarisation flat or rising; no compound was filed as active; the % refers to the polarisation; negative = inhibition;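 also: % of control where 0% means no effect; inhibitors lower the polarisation; unlabelled MLL peptide was the positive control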
TRPV1 potentiator = HTS Assay for Compounds that Act as Potentiators of the Vanilloid Receptor 1 | Transient receptor potential cation channel subfamily V member 1 (Homo sapiens), Q8NER1 | TRPV1-expressing cells, Fluo-8 calcium influx, capsaicin EC20 potentiation; host cell line not named in the record; control for the full effect not named in the record | potentiation, % at 8.33 µM | actives 0.02% (n = 320,000) | AID 540277, 2011; active means potentiation above 80%; inconclusive means 30% to 80%; inactive means below 30%; also: 0% is about no effect
Target sequence (Q8NER1 whole entry, looked up): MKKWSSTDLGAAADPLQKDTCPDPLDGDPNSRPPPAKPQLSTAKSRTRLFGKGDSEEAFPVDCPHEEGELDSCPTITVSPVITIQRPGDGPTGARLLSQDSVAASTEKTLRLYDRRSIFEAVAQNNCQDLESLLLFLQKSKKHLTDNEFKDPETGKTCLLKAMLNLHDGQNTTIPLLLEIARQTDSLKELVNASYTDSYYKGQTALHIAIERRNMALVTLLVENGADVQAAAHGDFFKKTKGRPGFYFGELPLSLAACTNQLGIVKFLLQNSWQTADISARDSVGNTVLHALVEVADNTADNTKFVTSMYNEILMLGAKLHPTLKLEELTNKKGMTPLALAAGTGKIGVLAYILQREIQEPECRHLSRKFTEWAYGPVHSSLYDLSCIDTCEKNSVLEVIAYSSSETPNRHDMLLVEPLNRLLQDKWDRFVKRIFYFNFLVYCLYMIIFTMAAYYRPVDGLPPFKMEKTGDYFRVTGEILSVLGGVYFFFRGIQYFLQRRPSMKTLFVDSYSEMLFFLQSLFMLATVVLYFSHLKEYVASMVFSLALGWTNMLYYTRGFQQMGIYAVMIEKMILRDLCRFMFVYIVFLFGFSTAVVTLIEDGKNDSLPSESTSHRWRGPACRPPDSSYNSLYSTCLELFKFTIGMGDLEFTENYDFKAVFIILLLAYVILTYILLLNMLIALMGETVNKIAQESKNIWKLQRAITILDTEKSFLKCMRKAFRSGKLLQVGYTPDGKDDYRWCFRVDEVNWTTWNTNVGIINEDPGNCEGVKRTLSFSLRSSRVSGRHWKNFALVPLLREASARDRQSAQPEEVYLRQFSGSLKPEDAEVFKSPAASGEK
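Fluo-8 calcium influx in TRPV1-expressing cells, kinetic read (ex 480/em 520 nm). Compound added and read 3 min for agonist activity, followed by capsaicin at EC20 final and 2 min further read for enhancement.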
ClpP mod = qHTS Assay for Activators of ClpP; purified B. subtilis ClpP, FRET peptide cleavage, 20 min; actives 1.9% (n = 340,000); AID 651965, 2013; Potency, µM (series often up to 57.5 µM), inactives show at the highest dose activity change, negative = active; active = well fitted falling curve with a large enough effect; inconclusive = small, poorly fitted or top-dose-only effect; inactive = no such curve, though single readings can be large or run the other way; also: potency is read from the fitted curve at half-maximal effect; the source files actives as falling curves though it sought activators and does not explain the sign; nearly all actives have a fitted effect of over 65% in size; many hits overshoot -100%
Target sequence (P80244 whole entry, looked up): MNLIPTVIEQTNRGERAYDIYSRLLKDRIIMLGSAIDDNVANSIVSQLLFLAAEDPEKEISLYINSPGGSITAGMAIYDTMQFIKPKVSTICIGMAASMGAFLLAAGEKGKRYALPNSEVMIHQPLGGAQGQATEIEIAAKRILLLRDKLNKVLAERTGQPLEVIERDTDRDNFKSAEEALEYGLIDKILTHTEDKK
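FRET quenching reversal measured ClpP activation: 10 microg/mL B. subtilis ClpP at pH 8 with the FRET-FV decapeptide, read at 430 nm after 320 nm excitation. The 20-min minus 0-min signal was scaled between DMSO/no-enzyme wells and ADEP (5.8 microM final).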
gsp agonist = qHTS for Agonist of gsp, the Etiologic Mutation Responsible for Fibrous Dysplasia/McCune-Albright Syndrome: qHTS; gsp mutant cells, cAMP HTRF, 30 min; control for the full effect not named in the record; Potency, µM (titrated, usually from 76.9 µM), without a hit: at the highest dose activation (cAMP increase), actives largely listed as activators; actives 0.13% (n = 340,000); active = well fitted activation curve with a large enough effect; inconclusive = small, poorly fitted or top-dose-only effect, or another doubt; inactive = no such curve, though single readings can be large or run the other way; cell line not stated here;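 also: phosphodiesterase inhibitor Ro 20-1724 added with compounds to block cAMP breakdown; potency is read from the fitted curve at half-maximal effect; nearly all actives have a fitted effect of over 60% in size; about a fifth of the inactives were tested at one dose only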
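Cells stably selected in G418 were plated at 2000/well, grown 16-24 hr, then given compounds in DMSO with the PDE inhibitor […] (300 uM solution added) for 30 min at 37C; cAMP was read by HTRF.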
Sfp inh = qHTS Assay for Inhibitors of Bacillus subtilis Sfp phosphopantetheinyl transferase (PPTase); 4'-phosphopantetheinyl transferase ffp (Bacillus subtilis), Q9F4F7; Biochemical Sfp PPTase activity, qHTS; Potency, µM, inactives show max response, negative = inhibition, most hits filed as inhibitors; actives 3.5% (n = 310,000); AID 1490, 2009; active = well fitted inhibition curve with a large enough effect; inconclusive = small, poorly fitted or top-dose-only effect, or another doubt; inactive = no such curve, though single readings can be large or run the other way;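 also: the enzyme is Sfp with the accession as filed and its product quenches rhodamine fluorescence; potency is read from the fitted curve at half-maximal effect; 0% = enzyme reaction without inhibitor and -100% = no enzyme wells; top concentration of the series not given in the record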
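Fluorescence-quenching assay: 15 nM Sfp-PPTase preincubated 15 min at room temperature with compound, then 5 uM rhodamine-CoA and 12.5 uM BHQ-2-labelled YbbR peptide added. Fluorescence (ex 525/em 598 nm) read at start and after 30 min; difference gives rate.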
gsp antag = qHTS for Antagonists of gsp, the Etiologic Mutation Responsible for Fibrous Dysplasia/McCune-Albright Syndrome: qHTS; actives 0.4% (n = 340,000); Potency, µM (series often up to 76.9 µM), without a hit: top-dose activity change, negative = inhibition, hits mostly inhibitors; gsp-mutant cells, cAMP HTRF, 30 min; control for the full effect not named in the record; AID 624288, 2012; active = falling curve of any shape with a large fitted effect; inconclusive = falling curve, mostly with a smaller effect; inactive = flat or rising curve; cell line not stated here;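 also: intracellular cAMP measured with PDE inhibitor Ro 20-1724 present during compound exposure; potency is read from the fitted curve at half-maximal effect; % is scaled to controls: 0 for no effect and ±100 for the full control effect; nearly all actives have a fitted effect of over 65% in size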
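HTRF cAMP measurement after 30 min RT detection following 30 min, 37C compound treatment alongside […] (added as 300 uM solution) in G418-selected cells seeded at 2000/well and grown 16–24 h.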
TRPML1 inh = qHTS for Inhibitors of the Human Mucolipin Transient Receptor Potential 1 (TRPML1) | activity change, negative = inhibition, % (concentration not given with the values) | AID 624415, 2012 | TRPML1-inducible cells, Ca2+ dye fluorescence, FDSS; stronger effect = lower value; inhibition of EC80 agonist-evoked calcium signal | actives 0.02% (n = 390,000) | Mucolipin-1 (Homo sapiens), Q9GZU1; in the data active means activity change below about -50%; inconclusive means about -30% to -50%; inactive means above about -30%;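 also: stimulus is agonist 54-4 at its EC80 concentration; % is scaled to controls: 0 for no effect and ±100 for the full control effect; compound concentration not given in the record; the text of the record puts the active cut at -80%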
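Tet-induced TRPML1-DL cells loaded with Ca8 no-wash calcium dye were read kinetically on FDSS. Compound addition was followed by EC80 agonist 54-4 (4 uM final); inhibition was read over 110 s.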
* hit, by the source's call; u = inconclusive; x = no result given; [ ] = remark or other dose.

SMILES	Menin-MLL FL inh	TRPV1 potentiator	ClpP mod	gsp agonist	Sfp inh	gsp antag	TRPML1 inh
CCCn1c(SCC(=O)c2cc(OC)ccc2OC)nc2c1c(=O)n(C)c(=O)n2C	3.9	-20.1	1.2%	-19.3%	22.0%	-4.4%	-6.8
O=C(O)CCNc1ccc(Cl)cc1	-0.7	-59.5	-0.1%	-6.9%	14.8%	1.0%	3.1
CCOc1ccc(CN2CCN(c3ncnc4scc(-c5ccccc5)c34)CC2)cc1	-1.2	-5.6	0.6%	-3.9%[15.4 µM]	-17.2%	-33.3%	-3.9
Cn1c(Cc2ccc3c(c2)OCO3)nnc1SCC(=O)N1CCc2ccccc2C1	1.6	1.9	-5.4%	3.7%	19.5%	-12.8%	-11.5
NS(=O)(=O)c1ccc(CCNCc2ccccc2OCc2ccc(F)cc2)cc1	-1.6	-10.5	-1.1%	26.7%[15.4 µM]	-11.9%	2.5%	0.9
O=C(CSc1n[nH]c(=O)[nH]c1=O)N/N=C/c1ccccc1O	3.6	0.3	-3.4%	-2.2%	30.6%	7.0%	15.8
CC(=NC1CC1)c1c(-c2ccccc2)[nH]n(-c2nc3ccccc3s2)c1=O	2.3	-4.0	0.7%	u	-2.6%	-4.0%	11.6
COc1ccc(-c2nnc(N(C)C(=O)C3CCOC3)s2)cc1 (centres undefined)	x	x	u	15.8%	x	13.7%	3.3
Cc1ccc(-n2nc3c(N4CCC(C(=O)NCc5ccccc5C)CC4)nnc(C)c3c2C)cc1	13.6	0.9	3.5%	u	-8.1%	u	9.0
Cc1c(Cl)cccc1NC(=O)CSc1nnc(CCNC(=O)OC(C)(C)C)o1	3.2	7.1	0.3%	-18.6%	16.1%	4.0%	-9.7
Cc1cc(C)cc(NC(=O)C2COc3ccccc3O2)c1 (centres undefined)	x	x	-1.5%	-35.7%[inhibitor]	x	x	-4.1
O=C(O)c1ccc2c3c(cccc13)C(=O)N(OS(=O)(=O)c1ccccc1)C2=O	0.5	7.8	x	0.9%	-22.7%	5.8%	5.6
O=C(Nc1ccc(S(=O)(=O)NC2=NCCCCC2)cc1)c1ccc(C(F)(F)F)cc1	4.0	8.0	-0.1%	-6.0%	23.2%	-5.3%	6.4
Cc1sc2nc(CSCC(=O)Nc3c(Cl)cccc3Cl)[nH]c(=O)c2c1C	4.7	-6.4	u	23.0%	-10.5%	1.2%	-10.7
O=C(NNC(=S)Nc1ccccc1)c1cccnc1	0.6	7.8	1.4%	3.9%	5.3%	10.5%	30.1
O=C(N/N=C/c1cn(-c2ccccc2)nc1-c1cc2ccccc2o1)c1ccccc1Br	x	5.9	1.1%	0.9%[15.4 µM]	21.9%	-14.2%	-7.0
CCCC(C)NC(=O)C1c2ccccc2Oc2ccccc21 (centres undefined)	-1.9	-13.2	-1.4%	21.8%	8.4%	4.7%	-12.1
COc1ccc(-c2nnn(CC(=O)c3ccc4c(c3)OCCO4)n2)cc1OC	3.2	-6.6	-3.9%	u	-0.7%	7.4%	-2.8
CC(=O)Nc1cc(NC(C)=O)cc(C(=O)NCC2(N3CCOCC3)CCCCC2)c1	x	-0.7	-0.9%	-0.1%[15.4 µM]	x	2.0%	12.9
COc1ccc(C2CC(c3ccc(OC)cc3)n3nc(NS(C)(=O)=O)nc3N2)cc1 (centres undefined)	-0.1	-5.1	-0.7%	14.9%	-3.6%	-13.3%	-8.6
C/C(=N/NC(=O)CNC(=O)c1cccnc1)c1cccc([N+](=O)[O-])c1	2.2	-2.2	x	4.6%[15.4 µM]	-20.5%	-2.4%	-0.1
COc1cc(C(=O)C(=O)c2ccc(OC)c(OC)c2)ccc1O	x	x	x	22.1%	x	-10.6%	-13.7
CCOc1ccc2ccccc2c1C1NC(=O)N(C)C(C)=C1C(=O)OCCOC (centres undefined)	3.6	-0.5	-1.2%	15.5%	16.8%	0.1%	-5.1
O=C(CN1C(=O)C2C3C=CC(C4CC34)C2C1=O)Nc1cccc2ncccc12 (centres undefined)	5.7	-3.9	-0.5%	u	15.3%	9.9%	1.5
C[C@H](CO)N1C[C@H](C)[C@@H](CN(C)S(=O)(=O)c2cccs2)Oc2ccc(NC(=O)Cc3ccccc3)cc2C1=O	x	x	0.5%	x	x	-18.0%	-12.9
COc1ccc(/C=N/n2c(C)nnc2C)c(OC)c1OC	-0.8	u	-13.0%	15.6%	9.4%	3.7%	-4.2
CCC(=O)c1ccc(OCC(=O)N(C)CC(=O)Nc2cccc(F)c2)cc1	0.8	-7.5	0.9%	-7.7%	2.3%	-2.7%	-21.1
CCN1CCN(C(=O)CN(c2cc(OC)ccc2OC)S(C)(=O)=O)CC1	5.1	7.3	0.9%	7.2%	-10.2%	1.9%	0.8
COc1ccc(Cl)cc1C(=O)NNC1CC(=O)N(Cc2ccc(Cl)cc2)C1=O (centres undefined)	3.4	22.1	-1.2%	2.4%[15.4 µM]	4.2%	0.4%	-9.6
COc1cccc(/C=N/n2c(-c3n[nH]c4c3CCC4)n[nH]c2=S)c1O	5.3	10.2	-8.1%	-47.1%[inhibitor]	25.1µM*	-21.4%	8.1
COc1ccc(CCNC(=O)CCCn2c(=O)c3cccn3c3cccnc32)c(OC)c1OC	x	2.6	u	u	10.1%	0.1%	22.9
COC(=O)c1sc(NC(=S)NNC(=O)c2c(Br)c(C)nn2C)c(C(=O)OC)c1C	1.4	22.9	2.0%	u	-13.9%	-3.4%	35.3
CCN1C(=O)[C@H]2[C@@H](c3ccc(-c4ccc(OC)cc4)cc3)N[C@@](C)(C(=O)OC)[C@H]2C1=O	x	-18.8	3.7%	x	x	-11.3%	-3.8
COc1cc(/C=N/O)ccc1OCc1ccc(Cl)cc1	1.0	3.1	x	x	-26.6%	x	x
COc1ccccc1-c1sc2ccccc2c1-c1ccc(OCCN2CCCCC2)cc1	x	x	31.6µM*	x	x	9.0%	21.6
Cn1c(=O)c2c(ncn2Cc2ccc(Cl)c(Cl)c2)n(C)c1=O	1.2	-7.1	2.1%	u	-1.8%	17.1%	8.5
COC(=O)Cc1ccc(NC(=S)NCc2ccccc2Cl)cc1	3.0	-7.3	1.7%	-4.6%	9.8%	-11.1%	-7.8
Cc1cccc(NC(=O)CCC2CCN(Cc3nccs3)CC2)c1	x	u	-1.3%	-8.5%	9.7%	7.4%	16.5
CCO/N=C(/c1nonc1N)N1CCN(c2ccc([N+](=O)[O-])cc2)CC1	3.3	-16.4	0.7%	2.7%	u	12.7%	-3.3
Clc1ccc(CO/N=C/c2c(-c3ccccc3)nc3n2CCS3)c(Cl)c1	1.1	6.6	35.5µM*	2.1%	-12.8%	-14.6%	7.1
O=C(O)c1cccc(NC(=O)c2cn(-c3ccccc3)nc2-c2cc3ccccc3o2)c1	5.2	6.1	3.3%	1.1%[15.4 µM]	1.0%	-24.9%	35.7
CC(=O)c1c(C)[nH]c(C(=O)OCc2csc(CC(=O)Nc3ccccc3C)n2)c1C	x	x	0.3%	u	x	25.1µM*	-11.1
CCN(CC(=O)Nc1c(F)cccc1F)C(=O)c1ccc(COc2ccccc2)cc1	x	10.3	0.6%	-1.8%	x	-8.8%	-0.2
OCC[C@@H]1C[C@H](O)[C@@H](O)[C@@]2(OCc3ccccc32)O1	3.6	23.7	0.3%	-14.4%	20.5%	7.3%	-7.2
CCc1ccc(OCC(=O)NNC(=O)Cc2cccs2)cc1	1.7	-14.6	-1.4%	-2.4%[15.4 µM]	8.3%	15.9%	12.8
c1ccc(-n2cnnc2SCc2cn3ccccc3n2)cc1	1.1	13.1	-0.7%	u	-2.0%	0.9%	5.4
CN(CC(=O)Nc1cccc(F)c1)C(=O)c1cn(-c2ccccc2)nc1-c1cccs1	x	x	u	10.0%[15.4 µM]	x	u	39.2
CCCOc1cccc(OCC(=O)Nc2nc3ccccc3[nH]2)c1	1.0	3.8	1.5%	-14.4%	-2.7%	-3.7%	9.5
COc1ccccc1NC(=O)Nc1nc(CC(=O)Nc2ccc(F)c(F)c2)cs1	x	-5.8	2.1%	-4.5%[15.4 µM]	x	-10.1%	20.1
Cc1ccc(C)c(Oc2coc3cc(OC(=O)c4cccs4)ccc3c2=O)c1	x	x	2.2%	u	x	-14.4%	-2.7
C=CCNC(=S)N1CCC(Cc2ccccc2)CC1	0.4	-22.5	-0.8%	25.1%	13.2%	-10.8%	6.6
O=C(Nc1ccccc1)C1CCCN(C(=O)c2ccc(F)cc2)C1 (centres undefined)	x	-11.5	-1.1%	-34.7%[inhibitor]	x	-19.4%	9.5
Cc1ccc(C)c(NC(=O)C2CCCN2/C=C/C(=O)C(F)(F)F)c1 (centres undefined)	1.7	-11.7	u	-9.9%	9.7%	23.2%	16.0
Cc1cc(NC(=O)CSc2nc(C(C)C)nc3ccccc23)no1	3.8	5.2	0.3%	u	13.0%	11.1%	-5.5
COc1ccc(NS(=O)(=O)c2ccc(N3C(=O)CCC3=O)cc2)cc1	-0.4	-1.8	0.6%	-30.9%	15.7%	5.9%	-3.1
NC(=O)c1ccc(Oc2cccc3cccnc23)c([N+](=O)[O-])c1	-15.1	-10.7	0.4%	1.7%[15.4 µM]	11.1%	-4.9%	-2.2
Cc1cc2c(s1)c1cnn(Cc3ccccc3F)c(=O)c1n2C	0.9	-0.4	u	-21.2%	10.7%	2.1%	17.7
CN1CCOCCOCCN(C)C(=O)N2CCOCCOCCN(CCOCC2)C1=O	2.1	4.5	-1.7%	-2.5%	5.8%	6.6%	-16.9
Cc1ccc(C)c(N2CCN(S(=O)(=O)c3ccc4c(c3)NC(=O)CS4)CC2)c1	x	13.5	-0.1%	9.0%	-1.8%	-8.8%	19.3
CCC(C)NC(=O)CSc1nc2ccccc2c(=O)n1CCCN1CCCCC1 (centres undefined)	-3.0	1.9	-1.1%	15.5%	15.7%	12.9%	4.4
O=S(=O)(Cc1ccc(Cl)cc1)NCC1CCCO1 (centres undefined)	-0.6	-5.0	-0.9%	-4.4%	6.7%	-0.3%	-2.2
